MARV entry inh: blocks Marburg virus binding to or entry into cells | Potency, µM (titrated, usually from 37.8 µM), inactives show at the highest dose activity change, negative = inhibition, hits mostly inhibitors | Marburg virus pseudotyped entry inhibition, cell reporter; control for the full effect not named in the record; about a third of the inactives were read at about 46 µM | 300,000 compounds, 1.8% hits | AID 540276; active = well fitted inhibition curve with a large enough effect; inconclusive = small, poorly fitted or top-dose-only effect, or effect the other way; inactive = flat fitted curve, though single readings scatter; tested in HEK293 cells; about a fifth of its hits are not listed in these tables; also: % is scaled to controls: 0 for no effect and ±100 for the full control effect; luciferase read-out
NS1 function inh: influenza NS1 inhibition; S. cerevisiae slowed by influenza A NS1, growth recovery by OD600; Potency, µM (doses to about 46.1 µM), inactives show at the highest dose activity, positive = more growth; 270,000 compounds, 0.4% hits; active means well fitted rising curve with a large enough effect; inconclusive means small, poorly fitted or top-dose-only effect; inactive means no such curve, though single readings can be large or run the other way; also: nearly all actives have a fitted effect of over 50% in size
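Growth recovery, yeast-based: influenza A NS1 expressed in S. cerevisiae causes slow growth, and suppressors are detected by OD600. The parent strain without NS1 is used as positive control.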
RE007 growth inh: less growth of the S. pombe RE007 Vpr strain. S. pombe RE007 Vpr strain, BacTiter-Glo ATP luminescence, 24 h; control for the full effect not named in the record. 360,000 compounds, 0.21% hits. Potency, µM (top dose mostly 92.2 µM), without a hit: at the highest dose activity change, negative = less growth. AID 651644; active = well fitted falling curve with a large enough effect; inconclusive = small, poorly fitted or top-dose-only effect; inactive = no such curve, though single readings can be large or run the other way;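 also: % is scaled to controls: 0 for no effect and ±100 for the full control effect; nearly all actives have a fitted effect of over 50% in size; the assay follows cell death caused by Vpr and the record does not say whether a fall means rescue or toxicity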
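Fission yeast RE007 carrying one integrated HIV-1 vpr copy, seeded at OD 0.01 in PMG+AL medium with 23 nL pinned compound. Grown 24 h at 30 degrees; viability read by BacTiter-Glo luminescence after 5 min.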
LASV entry inh: inhibitors of Lassa virus binding or cell entry; Potency, µM (series often up to 37.9 µM), inactives show at the top dose activity change, negative = inhibition, actives largely listed as inhibitors; 300,000 compounds, 1.2% hits; AID 540256; Lassa virus pseudotype entry inhibition, cell reporter; control for the full effect not named in the record; active means well fitted inhibition curve with a large enough effect; inconclusive means small, poorly fitted or top-dose-only effect, or effect the other way; inactive means flat fitted curve, though single readings scatter; tested in HEK293 cells; also: % is scaled to controls: 0 for no effect and ±100 for the full control effect; nearly all actives have a fitted effect of over 50% in size; luciferase read-out
Cruzain inh Det: cruzain (T. cruzi) inhibition with detergent; 200,000 compounds, 0.43% hits; Potency, µM, for inactives: max response, negative = inhibition, most hits filed as inhibitors; purified cruzain, Z-FR-AMC fluorescence, 0.01% Triton; P25779;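 also: plate controls were neutral wells for no effect and buffer without enzyme for full effect; nearly all actives have a fitted effect of over 40% in size; top concentration of the series not given in the record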
Target sequence (P25779 123-467 limits assumed): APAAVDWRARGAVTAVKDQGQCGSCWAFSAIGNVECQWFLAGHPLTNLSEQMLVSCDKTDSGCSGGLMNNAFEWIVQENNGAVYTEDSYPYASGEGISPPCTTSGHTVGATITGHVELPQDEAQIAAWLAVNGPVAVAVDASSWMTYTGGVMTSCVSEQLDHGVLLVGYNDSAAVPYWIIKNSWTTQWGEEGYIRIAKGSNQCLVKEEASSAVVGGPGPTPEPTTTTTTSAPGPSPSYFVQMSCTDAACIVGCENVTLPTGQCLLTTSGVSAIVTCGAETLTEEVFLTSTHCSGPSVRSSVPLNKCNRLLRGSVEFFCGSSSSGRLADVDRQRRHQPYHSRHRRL
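Read-out: AMC fluorescence (360 nm excitation, 450 nm emission), four reads over 2 min, first-to-third difference used. Conditions: cruzain 1.5 nM, Z-FR-AMC 2 uM, pH 5.5 acetate, 5 mM DTT, 0.01% Triton X-100.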
2A StopGo: lowers the luciferase signal of an FMDV 2A StopGo reporter. human cells with a luciferase reporter of 2A StopGo recoding; control for the full effect not named in the record. Potency, µM (top dose mostly 57.9 µM), inactives show at the highest dose signal change, negative = less light. 410,000 compounds, 1.2% hits; active = well fitted falling curve with a large enough effect; inconclusive = small, poorly fitted or top-dose-only effect; inactive = no such curve, though single readings can be large or run the other way; tested in HEK293T cells; also: % is scaled to controls: 0 for no effect and ±100 for the full control effect; nearly all actives have a fitted effect of over 45% in size; luciferase light after 4 h
Cruzain noTriton: blocks cruzain activity in detergent-free assay; purified cruzain, Z-FR-AMC fluorescence, no detergent; Potency, µM, inactives show max response, negative = inhibition, hits mostly inhibitors; 200,000 compounds, 2.3% hits; AID 1476; P25779;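 also: plate controls were enzyme without inhibitor for no effect and buffer without enzyme for full effect; nearly all actives have a fitted effect of over 40% in size; top concentration of the series not given in the record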
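Purified cruzain at 1.5 nM, pre-incubated 15 min with compound at room temperature in 100 mM sodium acetate pH 5.5, 5 mM DTT, 0.00005% Triton X-100. Reaction started with 2 uM Z-FR-AMC; AMC fluorescence increase over 60 s gives rate.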
SARS PLP yeast: blocks SARS-CoV papain-like protease in a yeast assay | Potency, µM (top dose mostly 32.9 µM), inactives show top-dose activity, positive = growth rescue | AID 485353 | 330,000 compounds, 0.19% hits | S. cerevisiae expressing SARS-CoV PLpro, growth rescue; control for the full effect not named in the record; active means well fitted rising curve with a large enough effect; inconclusive means small, poorly fitted or top-dose-only effect; inactive means no such curve, though single readings can be large or run the other way; also: 0% is about no effect; nearly all actives have a fitted effect of over 55% in size; growth read by luminescence after 48 h
The depositor's hits bear a star; ? = inconclusive; nt = not tested or not shown; & = joins results of further samples; [ ] = another dose, or the depositor's remark. Unless noted, calls follow the shape of the dose curve; as a rule, active = well fitted curve in the direction sought with a large enough effect; inconclusive = small, poorly fitted or top-dose-only effect, or another doubt; inactive = no such curve, though single readings can be large; an effect the other way counts as inactive or inconclusive. Potency is read from the fitted curve at half-maximal effect. No enrichment for hits (roughly 4.8% active in at least one column).

SMILES	MARV entry inh	NS1 function inh	RE007 growth inh	LASV entry inh	Cruzain inh Det	2A StopGo	Cruzain noTriton	SARS PLP yeast
COc1ccc(NC(=O)CSc2c3c(nc4ccc(Cl)cc24)CCCC3)cc1Cl	-4%[46.1 µM]	nt	nt	8%[46.1 µM]	-7.2%	?	-10%	nt
CCOC(=O)C1=C(COC(=O)CCOc2ccccc2C)NC(=O)NC1C (stereo not given)	6%	nt	-8%	?	nt	1%	nt	7%
Cc1ccc(NC(=O)c2cc([N+](=O)[O-])ccc2N2CCOCC2)cc1S(=O)(=O)N(C)C	?	1%	-9%	3%	nt	-13%	nt	0%
COc1ccc(CC(NC(C)=O)C(=O)N2CCN(C(=O)Nc3cccc(Cl)c3)CC2)cc1OC (stereo not given)	?	-13%	-1%	0%	0.1%	-15%	?	-8%
COc1ccc(CNC(=O)c2ccc3nc(CCc4ccccc4)oc3c2)cc1	nt	nt	nt	?	-2.4%	5%	-6%	nt
CCc1ccc(N/C(N)=N/c2nc(CSc3ncccn3)cc(=O)[nH]2)cc1	?	5%	3%	?	nt	?	nt	2%
O=C(Cc1cccs1)NNC(=S)NC(=O)c1ccc(F)c(F)c1	-4%	2%	0%	-1%	2.1%	-14%	-1%	-10%
Cc1ccc(C(=O)Nc2ccc(S(=O)(=O)N(Cc3ccccc3)c3ccccc3)cc2)cc1	?	nt	nt	-17%[46.1 µM]	-2.2%	?	?	nt
O=S(=O)(NCCS(=O)(=O)N1CCN(c2ccccc2)CC1)c1ccccc1	nt	5%	12%	-2%[46.1 µM]	-1.7%	-6%&9%	-12%	3%
CN1CCOc2cc(S(=O)(=O)Nc3ccc(F)cc3)ccc21	-21%	-8%	-5%	2%	-0.7%	14%	0%	4%
CC(Oc1ccccc1)C(=O)Nc1ccccc1C(=O)OCc1cc(=O)n2nc(C3CC3)sc2n1 (stereo not given)	nt	nt	nt	?	1.4%	?	-2%	nt
COc1ccc(-c2nn(-c3ccccc3)cc2/C=C(\C#N)C(N)=O)cc1[N+](=O)[O-]	-18%[46.1 µM]	9%	32%	?	nt	-4%	nt	-1%
COCCn1c(SCC(=O)N(C)C2CCS(=O)(=O)C2)nc2ccccc2c1=O (stereo not given)	-12%[46.1 µM]	4%	0%	2%	nt	3%	nt	0%
COc1cccc(NC(=O)CSc2nc3ccccc3c(=O)n2CCCC(=O)N2CCCC2)c1	-3%&2%	-6%	3%	3%	-0.5%	-5%	?	-4%
O=C(c1ccc(S(=O)(=O)N2CCC(c3nc4ccccc4s3)CC2)cc1)N1CCOCC1	?	-9%	2%	-20%	-0.5%	4%	?	-4%
COCCCNC(=O)CCC(=O)Nc1ccc2nc(N3CCOCC3)cc(C)c2c1	1%	-8%	1%	2%	-1.6%	40%[activator]	2%	-4%
CC1NC(C)c2c(ccc3ccccc23)O1 (stereo not given)	?	nt	-10%	13%[46.1 µM]	nt	-13%	nt	nt
COc1ccc(C(=O)Cn2nnc(-c3cccs3)n2)cc1	12%	-15%	?	24%	-2.8%	44%[activator]	-26%	-13%
COC(=O)c1cccnc1-n1c(=O)c2cccnc2n(Cc2cccc(OC)c2)c1=O	-1%	-4%	-10%	nt	-0.3%	-11%	5%	0%
CC(=O)c1ccc(NC(=O)CSCC(=O)Nc2ccc3ccccc3c2)cc1	?	5%	4%	-7%	-4.7%	-4%	2%	5%
O=C(NCc1ccccn1)c1ccc(CNS(=O)(=O)c2ccc(F)cc2)cc1	8%	6%	-3%	21%	-2.2%	2%	-14%	-25%
COc1ccc(-c2ccc(C(C)=O)cc2)cc1[C@H]1[C@@H]2C=CCC[C@@]2(C)C(=O)N1Cc1ccccc1	nt	3%	-2%	nt	nt	16%	nt	-2%
O=C(C[C@H]1C(=O)N(Cc2ccccc2)C[C@@H]1Cc1ccccc1)Nc1ccccc1	nt	-31%	16%	16µM*	nt	2%	nt	-2%
O=C(O)CC(NC(=O)OCc1ccccc1)c1ccc(Br)cc1 (stereo not given)	17%	3%	11%	?	2.7%	1%	4%	-14%
Cc1cccc(C(=O)OCC(=O)Nc2c(C)n(C)n(-c3ccccc3)c2=O)c1	5%	nt	-11%	14%	nt	-11%	nt	1%
COc1cccc(N2CC(=O)Nc3c(oc4nc(-c5ccccc5)cc(C)c34)C2=O)c1	nt	0%	-7%	nt	nt	5%	nt	-2%
Cn1cnc2c(ncn2C2OC(CO)C(O)C2O)c1=S (stereo not given)	7%[46.1 µM]	nt	2%	26%[46.1 µM]	nt	2%	nt	nt
Cc1nc(N)nc(Nc2ccc(C#N)cc2)c1Br	?	-3%	5%	28%	nt	-3%	nt	-1%
CCOC(=O)C1CCCN(C(=O)c2ccc3oc(CCc4ccccc4)nc3c2)C1 (stereo not given)	nt	-15%	-5%	nt	nt	14%	nt	-1%
Cc1ccc(CN2CCN(c3ncccn3)CC2)c(C)c1	-14%[46.1 µM]	-2%	-11%	-10%[46.1 µM]	nt	-18%	nt	-2%
Cc1cc(NC(=O)CCN2C(=O)C3C4CCC(C4)C3C2=O)c(C)cc1Br (stereo not given)	2%	-6%	4%	1%	-0.2%	?	1%	3%
CCc1noc(C)c1C(=O)N1CCN(S(=O)(=O)c2ccc(Br)cc2Cl)CC1	?	nt	4%	?	nt	?	nt	1%
CC1(C)Cc2cccc(OCC(=O)N3CCN(c4ccc([N+](=O)[O-])cc4)CC3)c2O1	?	22%	3%	8%	-9.6%	-11%	6%	55%
COC(=O)CNC(=O)COC(=O)/C=C/c1ccc(F)cc1	-18%[46.1 µM]	nt	-8%	nt	nt	-2%	nt	0%
Cc1ccc(NC(=O)c2cc(CC(C)C)nc3ccccc23)cc1	?	-44%	4%	-19%[46.1 µM]	nt	-6%	nt	-5%
COCCCNC(=O)C(C)N1c2cccc3cccc(c23)S1(=O)=O (stereo not given)	19%	-7%	-16%	-4%	nt	-1%	nt	1%
Cc1oc(/N=C/c2ccc3c(c2)OCO3)c(C#N)c1C	7%	0%	1%	4%	2.0%	-10%	-1%	3%
COc1ccc2c(c1)sc1ncc(C(=O)NCc3ccccc3F)c(=O)n12	4%[46.1 µM]	nt	nt	nt	-1.1%	10%	-5%	nt
COc1ccc(/C=C(\CC(=O)O)c2nc3ccccc3o2)cc1	?	nt	7%	12%[46.1 µM]	nt	36%[activator]	nt	-13%
CCCCNC(=O)CCn1c(=O)c2ccccc2n(Cc2ccccc2C)c1=O	12%	-17%	-5%	-19%	-0.6%	-8%	-3%	17%
O=C(NCCc1cccnc1)C1CCC(=O)N(Cc2ccc(Cl)cc2)C1 (stereo not given)	nt	-7%	-1%	nt	nt	-5%	nt	-17%
CC(C)Oc1ccc(S(=O)(=O)N2CCCCC2)cc1NC(=O)CN1C(=O)NC(C)(c2ccccc2)C1=O (stereo not given)	nt	9%	14%	nt	nt	-12%	nt	4%
COCCNC(=O)CN(C(=O)Cn1nnc2ccccc21)c1ccccc1C	nt	2%	2%	nt	nt	3%	nt	0%
CN(C)C(=O)[C@H]1C[C@H]1[C@@H](O)[C@H](CO)NC(=O)[C@H](Cc1ccccc1)NC(=O)OC(C)(C)C	nt	1%	8%	nt	nt	7%	nt	-9%
COc1ccc2c(c1)OC13CCN(C)CC1C2C(C(=O)c1ccc(F)cc1)C(=O)N3 (stereo not given)	-14%	-25%	-5%	4%	0.0%	-20%	7%	3%
Cc1noc(C)c1CSc1ncnc2ccccc12	8%	-88%	-4%	3%	-0.5%	1%	3%	-7%
Oc1ccc(Cl)cc1C=Nc1ccccc1Br	20%	-6%	-3%	3%	-3.6%	-8%	2%	18%
Cc1cc(C)n2c(Br)c(CN3CCCC(C)C3)nc2n1 (stereo not given)	3%[46.1 µM]	nt	-11%	0%[46.1 µM]	nt	-13%	nt	15%
CCOc1cccc(C(=O)Nc2ccc(NC(=O)c3ccccc3)c(C)c2)c1	?	-12%	8%	-26%[46.1 µM]	nt	4%	nt	?
Cc1cc(N2CCCC2)n2nc(C)nc2n1	23%	4%	-4%	1%	-2.3%	-9%	3%	15%
Cc1cc(NC(=O)C2C3C(=O)N(CC4CCCO4)C(C(=O)NCc4ccccc4)C34C=CC2(C)O4)no1 (stereo not given)	1%	3%[9.22 µM]	-11%	0%	-1.5%	4%	23%	6%
Cc1cccc(C)c1NC(=O)Cn1c(=O)n(CCC(=O)NCc2ccco2)c(=O)c2sccc21	-4%&-5%	11%	-5%	-8%	2.9%	25%	11%	5%
CCOCN(C(=O)Cn1c(C(C)O)nc2ccccc21)c1c(C)cccc1CC (stereo not given)	-1%	?	24%	-3%	-7.3%	-18%	?	25%
Cc1cccc(NC(=O)CSc2ncc3c(n2)-c2cc(Cl)ccc2N(C)S3(=O)=O)c1C	nt	nt	nt	0%[46.1 µM]	0.2%	-23%	-6%	nt
Cc1ccc(C)c(N2CCN(C(c3ccc(F)cc3)c3nnc(-c4ccccc4)o3)CC2)c1 (stereo not given)	?	nt	nt	?	-3.2%	-17%	3%	nt
COc1ccc(/C=C2\SC(=O)N(CC(=O)NC3CCS(=O)(=O)C3)C2=O)cc1 (stereo not given)	nt	7%	0%	nt	nt	-7%	nt	1%
CCOc1ccc(C(C(=O)NC(C)(C)C)N(CCOC)C(=O)CCC(=O)Nc2nccs2)cc1 (stereo not given)	?	6%	3%	5%[46.1 µM]	nt	1%	nt	1%
Cc1ccc2nc(Cl)c(CN(C(=O)c3cnccn3)C3CCCCC3)cc2c1	-29%	0%	2%	3%	-3.9%	-28%	?	3%
Cc1ccc(CSc2nc3cc(C(=O)NC4CCCC4)ccc3c(=O)n2Cc2ccccc2)cc1	nt	nt	nt	7%[46.1 µM]	0.9%	-9%	-9%	nt
Cc1cc2ccccc2c(=O)n1CC(=O)NCC(=O)N(C)C1CCCCC1	22%	5%	-3%	-5%	1.4%	-9%	-3%	-6%
Cc1ccc(C(=O)COC(=O)C(C)N2C(=O)C3C4C=CC(C4)C3C2=O)cc1C (stereo not given)	nt	-4%	-7%	nt	nt	-13%	nt	7%

Screening data as filed in PubChem.
